Screening data: PubChem, National Center for Advancing Translational Sciences (NCATS)
Vaccinia Venus: qHTS for Stage-Specific Inhibitors of Vaccinia Orthopoxvirus: Venus Reporter Primary qHTS; AID 720580, 2013; 0.46% of 330,000 active; Vaccinia virus Venus reporter expression, fluorescence; Potency, µM (highest dose often 36.5 µM), for inactives: at the top dose activity change, negative = inhibition, actives largely listed as inhibitors; active means well fitted inhibition curve with a large enough effect; inconclusive means small, poorly fitted or top-dose-only effect; inactive means no such curve, though single readings can be large or run the other way; tested in A549 cells; further: nearly all actives have a fitted effect of over 30% in size; inactives centre near -10
Vaccinia mCherry: qHTS for Stage-Specific Inhibitors of Vaccinia Orthopoxvirus: mCherry Reporter Primary qHTS; Vaccinia virus mCherry reporter infection, fluorescence; about a quarter of the inactives have no number; Potency, µM (series often up to 36.5 µM), inactives show at the top dose activity change, negative = inhibition, most hits filed as inhibitors; 0.63% of 310,000 active; active = well fitted inhibition curve with a large enough effect; inconclusive = small, poorly fitted or top-dose-only effect; inactive = no such curve, though single readings can be large or run the other way; tested in A549 cells; further: nearly all actives have a fitted effect of over 35% in size; inactives centre near -10
The depositor's hits bear a star; & = joins results of further samples. On the % scale 0 is the no-effect control and ±100 the full control effect; potency means the concentration at half of the fitted maximal effect.

What do the screens show for `Clc1ccc(Cl)c(-c2nc(-c3ccncc3)no2)c1`?
Vaccinia Venus: -15%; Vaccinia mCherry: inactive

Results for Cc1ccc(OCCSc2nc3ccccc3n2CC(=O)N2CCCCC2)cc1C ?
Vaccinia Venus: -17%; Vaccinia mCherry: inconclusive

Results for O=S(=O)(NCc1ccc2c(c1)OCO2)c1c(F)cc(F)cc1Br ?
Vaccinia Venus: -5%; Vaccinia mCherry: inconclusive

What do the screens show for `CCOC(=O)N/N=C/c1cn(Cc2ccc(Cl)cc2)c2ccccc12`?
Vaccinia Venus: inconclusive; Vaccinia mCherry: inactive

Results for CCN(CC(=O)Nc1ccc2c(c1)OCCO2)CC(=O)Nc1cc(C)on1 ?
Vaccinia Venus: -13%

How did CN(C)c1ccc(N=Cc2ccncc2)cc1 do in these assays?
Vaccinia Venus: 7%; Vaccinia mCherry: 24%

Results for COc1cccc(NC(=O)CN(C)C(=O)c2cc3c(s2)CCC(C)C3)c1 (centres undefined) ?
Vaccinia Venus: -22%; Vaccinia mCherry: -28%

Results for COc1ccc2cc(-c3csc(-c4cccnc4)n3)ccc2c1 ?
Vaccinia Venus: -12%

Results for Cc1c(C)n(C(=O)CSc2nncn2C)c2ccccc12 ?
Vaccinia Venus: 7%

How did O=C(NCCOc1ccccc1)c1ccc2c(c1)OCO2 do in these assays?
Vaccinia Venus: -9%; Vaccinia mCherry: -13%

How did O=C1CCCN2N=C(SCC(=O)Nc3cccc(F)c3)SC2=N1 do in these assays?
Vaccinia Venus: -9%; Vaccinia mCherry: -14%

What do the screens show for `CCNC(=O)C(=O)c1c(-c2ccccc2)[nH]c2ccccc12`?
Vaccinia Venus: 0%; Vaccinia mCherry: inactive

How did CN(C)CCn1nnc2c(=O)oc3ccccc3c21 do in these assays?
Vaccinia Venus: -10%; Vaccinia mCherry: inactive

Results for CC(=O)N=c1sc2c3ccccc3ccc2n1C ?
Vaccinia Venus: -2%; Vaccinia mCherry: 3%

Results for Cc1cccc(OCC(=O)Nc2nonc2NC(=O)COc2cccc(C)c2)c1 ?
Vaccinia Venus: -11%; Vaccinia mCherry: -14%

What do the screens show for `Cc1nc2ccccc2nc1OCc1ccc([N+](=O)[O-])cc1`?
Vaccinia Venus: -13%; Vaccinia mCherry: -10%

What do the screens show for `Cc1cn([C@H]2C[C@H](O)[C@@H](CNCc3ccccc3)O2)c(=O)[nH]c1=O`?
Vaccinia Venus: -16%; Vaccinia mCherry: inactive

How did O=C(COC(=O)c1cc(Cl)cc(Cl)c1)NCCN1C(=O)CSC1=O do in these assays?
Vaccinia Venus: 2%; Vaccinia mCherry: -14%

How did CC(=O)n1nc(-c2ccccc2)nc1NCc1cccs1 do in these assays?
Vaccinia Venus: -15%; Vaccinia mCherry: -2%

Results for O=[N+]([O-])c1cc(-c2nc(-c3ccccn3)no2)ccc1NCc1ccccc1 ?
Vaccinia Venus: -28%; Vaccinia mCherry: -5%

What do the screens show for `Clc1ccc(OCCCCCN2CCCC2)c(Br)c1`?
Vaccinia Venus: -1%; Vaccinia mCherry: -13%

Results for C=CCN1C(=O)N(c2ccc(F)cc2)C(=O)C1CC(=O)Nc1ccc(Cl)cc1 (centres undefined) ?
Vaccinia Venus: -27%; Vaccinia mCherry: -11%

What do the screens show for `Cc1cc(OCC(=O)OCC(=O)NCc2cccs2)ccc1Cl`?
Vaccinia Venus: -6%; Vaccinia mCherry: -14%

Results for O=C(N/N=C\c1ccc(OC(=O)c2cccs2)cc1)c1ccc(Cl)cc1 ?
Vaccinia Venus: -3%; Vaccinia mCherry: -7%

Results for CCOc1ccccc1N1CCN(C(=O)CCCN2C(=O)c3cccc4cccc(c34)C2=O)CC1 ?
Vaccinia Venus: -19%; Vaccinia mCherry: -21%

Results for COc1ccc(CNC(=O)/C=C/c2ccc(S(=O)(=O)N3CCOCC3)cc2)cc1 ?
Vaccinia Venus: -2%; Vaccinia mCherry: -4%

What do the screens show for `Cc1c(Cl)cccc1-n1ncc(C(=O)Nc2ccc(Br)cc2F)c1C1CCNCC1`?
Vaccinia Venus: -15%; Vaccinia mCherry: -15%

How did CN1CCN(CC(=O)N2CCn3c4c(c5cc(C6CCCCC6)ccc53)CCCC42)CC1 (centres undefined) do in these assays?
Vaccinia Venus: inconclusive; Vaccinia mCherry: 11µM*

Results for CCc1cccc(NC(=O)CCNS(=O)(=O)c2ccc3c(c2)CCN3C(C)=O)c1 ?
Vaccinia Venus: -2%; Vaccinia mCherry: -7%

What do the screens show for `COc1cc(/C=C2/SC(=S)N(CC(=O)Nc3cccnc3)C2=O)cc(OC)c1OC`?
Vaccinia Venus: 20%; Vaccinia mCherry: 1%

The last 3 records of the part before lead into the next:
How did CN1CCN(CC(=O)N2CCn3c4c(c5cc(C6CCCCC6)ccc53)CCCC42)CC1 (centres undefined) do in these assays?
Vaccinia Venus: inconclusive; Vaccinia mCherry: 11µM*

Results for CCc1cccc(NC(=O)CCNS(=O)(=O)c2ccc3c(c2)CCN3C(C)=O)c1 ?
Vaccinia Venus: -2%; Vaccinia mCherry: -7%

What do the screens show for `COc1cc(/C=C2/SC(=S)N(CC(=O)Nc3cccnc3)C2=O)cc(OC)c1OC`?
Vaccinia Venus: 20%; Vaccinia mCherry: 1%

What do the screens show for `O=C(Cc1csc(-c2ccccc2)n1)Nc1ccc(C(F)(F)F)cc1`?
Vaccinia Venus: -23%; Vaccinia mCherry: -6%

How did Cc1ccc(C(=O)COC(=O)c2cnccn2)cc1[N+](=O)[O-] do in these assays?
Vaccinia Venus: 7%; Vaccinia mCherry: -9%

What do the screens show for `S=C(Nc1ccc2c(c1)OCO2)N1CCCC1`?
Vaccinia Venus: -11%; Vaccinia mCherry: -4%

What do the screens show for `CCCC(=O)n1nc(-c2ccccc2)nc1N`?
Vaccinia Venus: -13%; Vaccinia mCherry: -23%

Results for COC(=O)c1ccc(C(=O)OC)c(-n2c(=O)c3ccccc3c3ccccc3c2=O)c1 ?
Vaccinia Venus: inconclusive; Vaccinia mCherry: inactive

How did O=C(O)c1ccc2oc(SCC(=O)N3CCCCC3)nc2c1 do in these assays?
Vaccinia Venus: -9%; Vaccinia mCherry: -21%

How did CSCCC(NC(=O)c1ccc([N+](=O)[O-])cc1Cl)C(=O)OCC(=O)N(C)C (centres undefined) do in these assays?
Vaccinia Venus: -5%; Vaccinia mCherry: -13%

Results for COC(=O)c1c(-c2ccc(S(C)(=O)=O)cc2)sc2cc(OC)ccc12 ?
Vaccinia Venus: -20%; Vaccinia mCherry: inconclusive

Results for CCOC(=O)Cc1csc(NC(=O)CSc2nc(=O)[nH]c3c2CCCC3)n1 ?
Vaccinia Venus: -14%; Vaccinia mCherry: -5%

How did CN(C(=O)c1ccncc1)C1CCS(=O)(=O)C1 (centres undefined) do in these assays?
Vaccinia Venus: -1%; Vaccinia mCherry: -12%

What do the screens show for `COc1ccc(C(=O)Oc2ccc3ccc(=O)oc3c2)cc1`?
Vaccinia Venus: -3%; Vaccinia mCherry: -6%

How did Cc1ccc(N(CC(O)Cn2c3ccccc3c3ccccc32)S(C)(=O)=O)cc1 (centres undefined) do in these assays?
Vaccinia Venus: 7%; Vaccinia mCherry: -7%

Results for Cc1ccccc1S(=O)(=O)NC(=O)C1(C)CCN1C(=O)c1cccc2ccccc12 (centres undefined) ?
Vaccinia Venus: -2%; Vaccinia mCherry: -14%

Results for CN(C)S(=O)(=O)c1ccc(-c2csnn2)s1 ?
Vaccinia Venus: -1%; Vaccinia mCherry: -12%

What do the screens show for `O=C(O)c1cccc(N2C(=O)c3cccc(Oc4ccc(Cl)cc4)c3C2=O)c1`?
Vaccinia Venus: -15%; Vaccinia mCherry: inactive

Arranged by formula weight (smallest number first): 3 of the compounds above.
What do the screens show for `CCCC(=O)n1nc(-c2ccccc2)nc1N`?
Vaccinia Venus: -13%; Vaccinia mCherry: -23%

How did Cc1ccc(C(=O)COC(=O)c2cnccn2)cc1[N+](=O)[O-] do in these assays?
Vaccinia Venus: 7%; Vaccinia mCherry: -9%

Results for COC(=O)c1ccc(C(=O)OC)c(-n2c(=O)c3ccccc3c3ccccc3c2=O)c1 ?
Vaccinia Venus: inconclusive; Vaccinia mCherry: inactive

(next part)
What do the screens show for `O=C(OCCN1CCOCC1)c1cccnc1`?
Vaccinia Venus: -20%; Vaccinia mCherry: inactive

What do the screens show for `CCOc1ccc(N2C(=O)C3C4C=CC(CC4)C3C2=O)c([N+](=O)[O-])c1` (centres undefined)?
Vaccinia Venus: -6%; Vaccinia mCherry: -10%

Results for CCN1CCCC1CN(Cc1cc2ccc(C)c(C)c2[nH]c1=O)C(=O)Nc1ccccc1OC (centres undefined) ?
Vaccinia Venus: -7%

What do the screens show for `CCSc1nnc(Cc2cc(=O)[nH]c(=O)[nH]2)n1-c1ccc(F)cc1`?
Vaccinia Venus: -12%; Vaccinia mCherry: inactive

What do the screens show for `Cc1ccccc1NC(=O)Cc1nnc(SCC(=O)NC2CCCC2)n1C`?
Vaccinia Venus: 1%; Vaccinia mCherry: -3%

What do the screens show for `Cc1cn(C2CC(O)C(CO)O2)c(=O)n(Cc2ccccc2)c1=O` (centres undefined)?
Vaccinia Venus: -18%; Vaccinia mCherry: -1%

What do the screens show for `O=c1oc(-c2ccccc2)nc2ccsc12`?
Vaccinia Venus: -19%; Vaccinia mCherry: -27%

How did CCOCCc1nn2c(=O)cc(COC(=O)C(CC)c3ccccc3)nc2s1 (centres undefined) do in these assays?
Vaccinia Venus: -17%; Vaccinia mCherry: -5%

Results for CN(C(=O)c1ccc(NC(=O)Cc2cccc(NC(=O)C3CCN(C(=O)C4CCC4)CC3)c2)cc1)C1CC1 ?
Vaccinia Venus: 0%; Vaccinia mCherry: -3%

How did COc1ccc(NC2CCCN(C(=O)CCOc3ccccc3)C2)cc1 (centres undefined) do in these assays?
Vaccinia Venus: -2%; Vaccinia mCherry: inconclusive

What do the screens show for `CCC(Cn1nnc2ccccc2c1=O)NC(=O)Nc1cc(OC)cc(OC)c1` (centres undefined)?
Vaccinia Venus: 4%; Vaccinia mCherry: -9%

Results for CCN(CC(=O)Nc1ccc(NC(C)=O)cc1)C(=O)c1ccc(Sc2nncn2C)c([N+](=O)[O-])c1 ?
Vaccinia Venus: 4%; Vaccinia mCherry: -9%

Results for CCN(CC)CCN(C(=O)c1ccc(S(=O)(=O)N2CCCCC2)cc1)c1nc2cc3c(cc2s1)OCO3 ?
Vaccinia Venus: -9%; Vaccinia mCherry: -22%

How did COc1ccccc1CNC(=O)CCC(=O)N1CC(C)Sc2ccccc21 (centres undefined) do in these assays?
Vaccinia Venus: -3%&-10%; Vaccinia mCherry: -8%&-9%

What do the screens show for `O=C(CS(=O)(=O)Cc1ccccc1)Nc1nnc(C(F)(F)F)s1`?
Vaccinia Venus: -19%; Vaccinia mCherry: inactive

Results for COc1cc2ccccc2cc1C(=O)N1CCCC1 ?
Vaccinia Venus: -6%; Vaccinia mCherry: inactive

How did Cc1c(C(=O)NC2CCCCC2)oc2ccccc12 do in these assays?
Vaccinia Venus: -18%; Vaccinia mCherry: -3%

Results for Cc1nc2ccn(Cc3ccccc3)c(=O)c2cc1C(=O)NCc1ccccc1F ?
Vaccinia Venus: -13%; Vaccinia mCherry: 4%

Results for OCc1cn(-c2ccc(Cl)cc2)nn1 ?
Vaccinia Venus: 0%; Vaccinia mCherry: 6%

What do the screens show for `O=C(Nc1nncs1)C1COc2ccccc2O1` (centres undefined)?
Vaccinia Venus: -6%; Vaccinia mCherry: -5%

What do the screens show for `C1=C[C@H]2CC[C@@H]1N(c1ccccc1)O2`?
Vaccinia Venus: -8%; Vaccinia mCherry: inconclusive

How did Cc1nc2ccccc2c(=O)n1NC(=O)/C=C/c1ccccc1Cl do in these assays?
Vaccinia Venus: -7%; Vaccinia mCherry: -10%

What do the screens show for `COC(=O)c1ccc(NC(=O)CSc2nncn2-c2ccccn2)cc1`?
Vaccinia Venus: 0%; Vaccinia mCherry: inactive

How did O=C(Nc1cccs1)Nc1ccccc1Br do in these assays?
Vaccinia Venus: -11%; Vaccinia mCherry: inconclusive

How did Nc1nnc(CC(=O)NCc2ccccc2)s1 do in these assays?
Vaccinia Venus: -21%

What do the screens show for `COc1ccccc1NC(=O)C(=O)N1N=C(C(C)C)CC1(O)C(F)(F)F` (centres undefined)?
Vaccinia Venus: -4%; Vaccinia mCherry: -2%

What do the screens show for `C(=N\Nc1nc(N2CCCC2)nc(N2CCCC2)n1)/c1ccncc1`?
Vaccinia Venus: -5%; Vaccinia mCherry: 1%

What do the screens show for `CCOP(=O)(OCC)c1nc(-c2ccccc2)oc1NCc1ccccc1`?
Vaccinia Venus: -15%; Vaccinia mCherry: -18%

How did CCCCN1C(=O)c2cccc3cc(O)cc(c23)C1=O do in these assays?
Vaccinia Venus: 12%; Vaccinia mCherry: -20%

What do the screens show for `CN(CC(=O)Nc1cccc(F)c1)C(=O)CC1CCCCC1`?
Vaccinia Venus: -13%; Vaccinia mCherry: inconclusive

Results for O=C(Nc1ccc(Cl)c(C(F)(F)F)c1)c1nc2ccccc2nc1N1CCCCC1 ?
Vaccinia Venus: -3%; Vaccinia mCherry: 0%

How did CCc1cccc(NC(=O)CCCSc2nc3ccccc3[nH]2)c1 do in these assays?
Vaccinia Venus: 7%; Vaccinia mCherry: -2%

Results for Cc1ccc(NC(=O)c2ccc(CSc3ncnc4nc[nH]c34)cc2)c(C)c1 ?
Vaccinia Venus: -26%

What do the screens show for `CCc1nnc(NC(=O)c2ccc(-c3ccc([N+](=O)[O-])cc3Cl)o2)s1`?
Vaccinia Venus: 5%; Vaccinia mCherry: inactive
